KCNQ2 enhance: potentiators of rat KCNQ2 potassium channel. CHO-K1 KCNQ2, FluxOR thallium flux fluorescence; hits give high values. B-score at 10 µM. 310,000 tested, 0.54% active;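 active = fluorescence ratio B-score at least 3 SD of library B-scores, with initial fluorescence B-score within 3 SD, cut at about 5.3 in these data; same plate scores as AID 2156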;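 also: B-score of peak minus minimum over baseline fluorescence ratio after K+ and Tl+ stimulus; positive B-score means potentiation of KCNQ2 with more thallium influx and brighter signal; only the inactives scoring about 0 or higher are listed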
Target sequence (O88943 whole entry, looked up): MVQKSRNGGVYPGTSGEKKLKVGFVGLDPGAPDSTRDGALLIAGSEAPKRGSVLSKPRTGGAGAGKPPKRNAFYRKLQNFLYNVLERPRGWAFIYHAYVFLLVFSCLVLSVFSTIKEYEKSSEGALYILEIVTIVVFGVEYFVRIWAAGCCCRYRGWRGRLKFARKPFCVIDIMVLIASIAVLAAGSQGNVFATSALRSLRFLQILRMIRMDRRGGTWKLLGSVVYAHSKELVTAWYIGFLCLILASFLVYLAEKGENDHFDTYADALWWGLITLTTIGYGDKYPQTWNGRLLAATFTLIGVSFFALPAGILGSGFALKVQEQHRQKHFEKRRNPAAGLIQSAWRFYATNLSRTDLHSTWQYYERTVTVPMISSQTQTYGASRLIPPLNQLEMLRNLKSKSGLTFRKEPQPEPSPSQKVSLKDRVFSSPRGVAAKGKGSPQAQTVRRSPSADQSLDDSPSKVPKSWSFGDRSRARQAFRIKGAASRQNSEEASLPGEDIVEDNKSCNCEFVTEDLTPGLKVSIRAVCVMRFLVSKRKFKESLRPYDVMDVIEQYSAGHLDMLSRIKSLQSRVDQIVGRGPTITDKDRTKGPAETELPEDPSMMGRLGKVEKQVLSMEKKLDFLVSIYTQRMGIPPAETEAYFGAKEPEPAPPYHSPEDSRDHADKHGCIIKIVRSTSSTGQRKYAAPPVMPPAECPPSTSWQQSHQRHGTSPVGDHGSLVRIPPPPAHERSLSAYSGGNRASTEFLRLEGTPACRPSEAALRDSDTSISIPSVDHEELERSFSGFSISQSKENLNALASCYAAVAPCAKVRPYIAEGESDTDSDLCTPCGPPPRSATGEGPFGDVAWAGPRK
KCNQ2 enhance baseline: second read-out of KCNQ2 enhance, no call of its own (marks repeat the call); B-score; compound at 10 µM; measured here: initial fluorescence intensity artifact check;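 brightness before thallium and not channel activity; 0 = typical well and far values either way flag optical interference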
* hit, by the source's call.

SMILES	KCNQ2 enhance	KCNQ2 enhance baseline
Nc1nc(SCc2ccccc2Cl)ns1	0.24	-0.08
CC(C)(C)c1ccc(OCCCNC2CCCC2)cc1	3.55	1.9
O=C(c1cc(COc2ccc(F)cc2F)on1)N1C[C@H]2CC[C@H]1C2	0.36	-1.59
CCOc1ccc(NC(=O)C2CCN(C(=O)C3CC(=O)N(c4ccc(C)cc4)C3)CC2)cc1 (centres undefined)	0.67	0
O=C(O)CSCCn1cccn1	1.69	-0.42
CCOC(=O)C1(Cc2ccc(O)cc2)NC(c2ccco2)C2C(=O)N(c3ccccc3F)C(=O)C21 (centres undefined)	0.61	-1.86
Cc1ccccc1NC(=O)CN(C)S(=O)(=O)c1ccc(-c2ccc(=O)[nH]n2)s1	1.35	-1.16
Cc1onc(-c2c(F)cccc2Cl)c1C(=O)N1CCSCC1	0.42	1.86
Cc1cc(NC(=O)COc2cccnc2[N+](=O)[O-])no1	0.01	0.51
C=CCn1c(COc2ccc(F)cc2)nnc1SCC(=O)Nc1cccc(S(N)(=O)=O)c1	1.47	-0.22
COc1ccccc1NC(=O)NCC1CC1(Cl)Cl (centres undefined)	1.22	-2.33
Cc1ccc(C(=O)CSC2=C(C#N)C(c3ccco3)C3=C(CC(C)(C)CC3=O)N2)cc1 (centres undefined)	0.27	-0.98
O=C(NC1CCCCC1)C(c1ccncc1)N(C(=O)c1csnn1)c1cccc(F)c1 (centres undefined)	0.1	1.42
O=C(O)c1ccccc1-c1cc2ccccc2[nH]1	0.03	-1.83
O=C(Nc1ccc2c(c1)CCC2)c1cccc(S(=O)(=O)N2CCN(c3ccccc3)CC2)c1	0.68	-0.24
Cc1cccc(NC(=O)COc2nsnc2N2CCOCC2)c1	0.27	-1.79
c1csc(CNCc2ccncc2)c1	0.4	-0.24
CCOC(=O)C1=C(C)N(CCCCCC(=O)O)C(=O)NC1c1ccccc1Cl (centres undefined)	1.88	-1.01
COc1cccc(CSc2nccn2C)c1	2.12	-1.47
O=c1[nH]c(N2CCc3ccccc32)nc2c1CCCC2	1.01	-0.38
Cc1nc(C)c(C(=O)C2=C(O)C(=O)N(CCN3CCOCC3)C2c2ccco2)s1 (centres undefined)	0.02	1.32
O=C(Nc1nc(-c2ccccn2)cs1)c1ccc(Br)s1	1.85	1.82
CCCN(CCC)CCCNC(=O)c1cn(CC)c2ccc(S(=O)(=O)N(C)C3CCCCC3)cc2c1=O	0.55	-1.01
CC(=O)C1CCCN(C(=O)c2ccc3nc(Cc4cccc(Cl)c4)oc3c2)C1 (centres undefined)	0.63	-0.59
CCC(=O)Nc1c(C)c(CC)nc2ccccc12	0.81	-1.57

More structures follow.
SMILES	KCNQ2 enhance	KCNQ2 enhance baseline
COc1ccccc1CNc1ccc2nnc(CCNC(=O)c3ccc(C)cc3)n2n1	0.96	-3.64
Cc1ccc(-c2n[nH]c(=S)n2/N=C/c2cccn2C)cc1	0.75	-2.08
CC(Sc1nc2ccccc2s1)C(=O)NCc1ccc2c(c1)OCO2 (centres undefined)	0.73	0.09
Cc1ccc(C(=O)OC(C)CN2CCOCC2)cc1 (centres undefined)	1.79	2.03
CCc1nc(SCc2ccccc2C)n[nH]1	1.43	0.45
CN(CC(=O)Nc1ccccc1Br)C(=O)CNC(=O)c1ccco1	0.99	-0.45
Cc1ccc(C(=O)NC2CC3CCC(C2)N3Cc2ccco2)cc1 (centres undefined)	1.39	-2.38
O=C(Nc1cccc(S(=O)(=O)N2CCOCC2)c1)c1cn(-c2ccccc2)nc1-c1ccccc1	0.02	-0.47
CN(Cc1ccccc1)CC(O)COc1ccc(CNCc2nccn2C)cc1 (centres undefined)	0.04	-0.86
O=C(CSC1=NS(=O)(=O)c2ccccc2N1)Nc1cccc(F)c1	1.02	-2.1
O=C(CNC(=O)c1ccco1)N=Nc1c(O)n(CCc2ccccc2)c2ccccc12	2.02	-2.14
COCCN(C(=S)Nc1ccc(C)cc1)C(C)c1ccco1 (centres undefined)	1.84	-0.68
O=C(Cc1ccccc1[N+](=O)[O-])NC1CC2CCC1C2 (centres undefined)	2.62	2.09
CC1(C)CCc2cc(-c3ccn(S(=O)(=O)c4ccccc4Cl)n3)ccc2O1	18.6*	-1.85*
Cc1cc(C(=O)NC2CCCCC2)on1	0.49	-0.06
Cc1ccc(NC(=O)C2CCCN(S(=O)(=O)c3cnc[nH]3)C2)cc1C (centres undefined)	1.14	0.47
COC(=O)CN1C(=O)Nc2ccc(Cl)cc2C1c1ccccc1 (centres undefined)	1.82	-1.07
Oc1ccc(/C=N\Nc2nncc(-c3ccccc3)n2)cc1	1.25	1.69
Cc1ccc(NC(=O)CSc2nnc(C3CCCCC3)n2N)cc1F	0.04	-0.23
CCCN(CCC)CCCNc1ccc2nnc(-c3ccc(F)cc3)n2n1	0.89	0.99
NC(=O)CC(NC(=O)c1ccc(Br)cc1)c1ccc(NCc2ccc(F)cc2)c([N+](=O)[O-])c1 (centres undefined)	0.24	1.27
Cc1c(CN2CCC(CO)(CC3CCCCO3)CC2)cnn1C (centres undefined)	2.53	-0.71
C/C(=N\OC(=O)c1cccc(Cl)c1)c1sc(C)nc1C	1.05	-0.37
Cc1c(C(c2ccc(C(=O)O)cc2)c2c(C)n(C)n(-c3ccccc3)c2=O)c(=O)n(-c2ccccc2)n1C	0.03	0.48
CCNc1nc(NC(C)C)nc(N(C#N)Cc2ccccc2)n1	0.56	1.91

A run of entries taken from the entries so far, as a working copy:
SMILES	KCNQ2 enhance	KCNQ2 enhance baseline
COc1ccccc1CNc1ccc2nnc(CCNC(=O)c3ccc(C)cc3)n2n1	0.96	-3.64
Cc1ccc(-c2n[nH]c(=S)n2/N=C/c2cccn2C)cc1	0.75	-2.08
CC(Sc1nc2ccccc2s1)C(=O)NCc1ccc2c(c1)OCO2 (centres undefined)	0.73	0.09
Cc1ccc(C(=O)OC(C)CN2CCOCC2)cc1 (centres undefined)	1.79	2.03
CCc1nc(SCc2ccccc2C)n[nH]1	1.43	0.45
CN(CC(=O)Nc1ccccc1Br)C(=O)CNC(=O)c1ccco1	0.99	-0.45
Cc1ccc(C(=O)NC2CC3CCC(C2)N3Cc2ccco2)cc1 (centres undefined)	1.39	-2.38

Further entries.
SMILES	KCNQ2 enhance	KCNQ2 enhance baseline
COc1ccc(CN2CCc3cc(OC)c(OC)cc3C2)cc1O	0.88	1.38
CCOC(=O)c1sc(Nc2cccc(Cl)c2)nc1C	0.1	-0.17
CC12COC3(C(=O)Nc4cccnc4)CC1CCC32C (centres undefined)	0.16	3.21
Cc1c(NC(N)=O)c(=O)n(-c2ccccc2)n1C	1.73	0.07
CC(C)C(=O)N(Cc1cc2ccccc2[nH]c1=O)C(C)C	0.27	-1.01
O=C(O)C1CCN(S(=O)(=O)c2ccc(N3CCOCC3)c([N+](=O)[O-])c2)CC1	0.54	-2.51
Cn1c(=O)c2c(nc(SCCN3CCOCC3)n2Cc2ccccc2)n(C)c1=O	0.42	-0.84
Cc1ccc2cccc(OCc3ccc(Br)cc3)c2n1	1.15	-0.18
O=C1COc2ccc(OCc3ccc(F)cc3)cc21	0.52	0.85
COc1ccccc1N/C(N)=N/c1nc(C)cc(C)n1	0.11	-0.81
O=C(COc1cccc2cccnc12)N/N=C1\SCC(=O)N1Cc1ccco1	0.52	1.19
CCOC(=O)C1=C(C)NC(=S)N(C=O)C1c1ccccc1 (centres undefined)	1.68	-0.55
CC(=O)Nc1ccc(S(=O)(=O)NC2=C(N3CCN(C)CC3)C(=O)c3ccccc3C2=O)cc1	1.13	-0.23
Cn1cc(/C=N/NC(=O)c2ccccc2O)c2ccccc21	0.05	-1.4
Cc1nc2ccccc2c2nc(NC(=O)C(F)(F)F)nn12	1.67	-0.85
COc1cc(OC)c(C2=NOC(C(=O)NCc3cccnc3)C2)cc1Cl (centres undefined)	1.53	0.08
O=C(N/N=C/C=C/c1ccccc1)C1CC1c1ccccc1 (centres undefined)	0.7	0.5
CCCCOc1cccc(C(=O)NC(=S)Nc2cccc(NC(=O)c3ccccc3Cl)c2)c1	1.37	-1.58
CSc1nsc(SCc2ccc(F)cc2)n1	0.74	-0.73
C=CCNC(=O)c1onc(CSc2ccc(C(C)C)cc2)c1C(=O)O	1.07	-0.43
COc1cccc(C(=O)CC(=O)C(=O)Nc2ccc([N+](=O)[O-])cc2C)c1	0.22	1
O=C(c1ccc(=O)oc1)N1CCOCC1	1.31	0.12
O=C(CN1C(=O)/C(=C\c2ccco2)SC1=S)Nc1ccc(O)cc1C(=O)O	0.89	1.31
O=S(=O)(c1ccc(Br)c2ccccc12)N1CCOCC1	0.19	0.99
COC(C/C=C/[C@H](O)[C@@H](C)OCc1ccccc1)OC	0.02	2.08

Other entries follow:
SMILES	KCNQ2 enhance	KCNQ2 enhance baseline
CC[C@@H](C)CN1C(=O)N[C@@H](CCc2ccccc2)C(C(C)=O)=C1C	2.3	-1.86
O=CN1CCN(C(=O)C(=O)c2cn(CC(=O)N3CCCCC3)c3ccccc23)CC1	0.42	2.27
CC(=O)Nc1ccc2nc(-c3ccccn3)[nH]c2c1	0.34	-0.01
N#Cc1cc2c(nc1SCc1nc3ccccc3[nH]1)CCC2	0.2	-0.09
O=C(COc1ccc(Cl)cc1)NCc1nnc(SCC(=O)NCC2CCCO2)o1 (centres undefined)	0.26	0.66
COc1cccc(NC(=O)CCNC(=O)Cn2ccc3ccccc3c2=O)c1	0.01	0.93
O=C(CN1CCc2ccccc2C1)c1cccs1	0.02	0.81
Cc1ccc(N(CC(=O)Nc2ccc(Br)c(C)c2)S(=O)(=O)c2c(C)[nH]c(=O)[nH]c2=O)cc1	3.59	0.19
O=C1C2CCCCN2C(=O)N1CCN1CCN(c2ccc([N+](=O)[O-])cc2)CC1 (centres undefined)	1.37	-0.11
CC(C)C(=O)N1CCN(c2ccccc2NC(=O)c2cc([N+](=O)[O-])ccc2N2CCOCC2)CC1	0.01	-0.46
COc1cc(/C=N/NC(=O)COc2c(C)cc([N+](=O)[O-])cc2C)ccc1OC(=O)c1ccccc1Br	0.46	-0.54
Cc1ccc2c(c1)nnn2C1CCN(C(=O)C2CCCCC2)CC1	0.61	-0.6
Cc1cn2c(=O)c(C(=O)N3CCN(c4ccccc4F)CC3)cnc2s1	0.64	-0.74
CCC(=O)Nc1ccc(C(=O)CSc2nnc(-c3ccccc3F)n2CCc2ccccc2)cc1	1.16	2.2
CCOc1ccccc1C(=O)NCC(=O)NNC(=O)c1cccc(S(=O)(=O)Nc2ccc(OC)cc2)c1	0.97	0.18
CCC(C(=O)NC(C)(C)C)N(C(=O)c1ccc(Cl)nc1)C1CCCC1 (centres undefined)	0.67	-1.92
CC(/C=C/c1ccccc1)=N/NC(=O)Cn1nnc(N)n1	0.79	-0.77
O=C1Nc2ccc(S(=O)(=O)N(CCO)CCO)c3cccc1c23	1.15	-1.13
CC1=NN(C(C#N)c2ccccc2)C(c2ccccc2)C1 (centres undefined)	0.46	1.99
NC(=O)c1sc2cc(C(F)(F)F)cnc2c1-c1cccs1	0.45	-0.4
COC(=O)c1ccc(CSc2nc3ccccc3c(=O)n2N)cc1	0.57	-1.08
O=C(CCCn1c(=O)c2sccc2n(CC(=O)NCc2ccco2)c1=O)NCc1ccco1	0.93	-0.94
CCN(C(=O)COC(=O)c1cc(=O)c2ccccc2o1)c1c(N)n(Cc2ccccc2)c(=O)[nH]c1=O	0.13	0.02
Cc1nn(C)cc1NC(=O)CC12CC3CC(CC(C3)C1)C2	2.06	-1.47
C/C(=N\NC(=O)CSc1ncccn1)c1ccc2c(c1)OCCO2	0.88	0.06

(cont.)
SMILES	KCNQ2 enhance	KCNQ2 enhance baseline
O=C(O)CNC1=NCCCCC1	1.53	-0.83
Cc1ccc(S/C(=N\S(=O)(=O)c2ccc(Cl)cc2)c2ccccc2)cc1	0.28	-0.66
CN(CCC#N)CC(=O)Nc1ccc(S(N)(=O)=O)cc1	0.01	-0.69
Cc1cc(C)c(S(=O)(=O)Nc2cccc(C(=O)O)c2)cc1S(=O)(=O)Nc1cccc(C(=O)O)c1	1.24	-0.92
O=C(NC(=S)Nc1ccc2c(c1)C(=O)c1ccccc1C2=O)c1ccc(F)cc1	1.46	-0.31
O=C(CSCCO)Nc1ccc([N+](=O)[O-])cc1	0.08	-1.37
O=C(N/N=C/c1ccc(Br)cc1)c1ccc(Br)o1	0.68	-1.21
CCOc1ccccc1Cn1c(=O)sc2ccccc21	1.35	-0.37
COc1cc(CNC2CCCCC2)c(Br)cc1OC1CCCC1	0.45	0.03
O=C(Nc1ccc(F)cc1F)NC1CCN(S(=O)(=O)c2ccc(F)cc2)CC1	0.26	-0.03
O=c1c2ccccc2nnn1CSc1nnnn1-c1ccc(O)cc1	2.54	-1.87
Cc1cc(OC(=O)c2ccccc2[N+](=O)[O-])c([N+](=O)[O-])c(=O)[nH]1	0.9	0.85
CC1CCCCN1CCNC(=O)C1CCN(S(=O)(=O)c2cccc3nsnc23)CC1 (centres undefined)	0.58	-0.14
CCOc1ccccc1C(=O)Nc1nnc(COC)s1	1.67	-0.87
O=C(Nc1cccc(S(=O)(=O)N2CCCCCC2)c1)C1CC(=O)N(c2ccc3c(c2)OCCO3)C1 (centres undefined)	0.72	-0.3
COC(=O)CCCC(=O)N1CCCC(C(=O)c2ccc(OC)cc2C)C1 (centres undefined)	0.02	0.02

Compound profiles, as listed above.
O=C(N/N=C/c1ccc(Br)cc1)c1ccc(Br)o1 reads KCNQ2 enhance = 0.68; KCNQ2 enhance baseline = -1.21
CCOc1ccccc1C(=O)Nc1nnc(COC)s1 reads KCNQ2 enhance = 1.67; KCNQ2 enhance baseline = -0.87
O=C(NC(=S)Nc1ccc2c(c1)C(=O)c1ccccc1C2=O)c1ccc(F)cc1 reads KCNQ2 enhance = 1.46; KCNQ2 enhance baseline = -0.31

These rows are one share of the data (hit frequency here may not be typical).
